NS1 inh = qHTS Assay for Inhibitors of Influenza NS1 Protein Function; 270,000 compounds, 0.4% hits; Potency, µM (highest dose often 46.1 µM), without a hit: top-dose activity, positive = more growth; S. cerevisiae slowed by influenza A NS1, growth recovery by OD600; active means well fitted rising curve with a large enough effect; inconclusive means small, poorly fitted or top-dose-only effect; inactive means no such curve, though single readings can be large or run the other way; further: nearly all actives have a fitted effect of over 50% in size
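In this qHTS, NS1 from influenza A is expressed in budding yeast, where it slows growth. Cells are switched from glucose to 2% galactose medium (pH 6.0, -URA), treated with compound, and growth recovery is read at OD600.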
Cruzain Triton = qHTS Assay for Promiscuous and Specific Inhibitors of Cruzain (with detergent); Cruzipain (Trypanosoma cruzi), P25779; purified cruzain, Z-FR-AMC fluorescence, 0.01% Triton; 200,000 compounds, 0.43% hits; Potency, µM, for inactives: max response, negative = inhibition, hits mostly inhibitors;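 further: plate controls were neutral wells for no effect and buffer without enzyme for full effect; nearly all actives have a fitted effect of over 40% in size; top concentration of the series not given in the record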
Target sequence (P25779 123-467 limits assumed): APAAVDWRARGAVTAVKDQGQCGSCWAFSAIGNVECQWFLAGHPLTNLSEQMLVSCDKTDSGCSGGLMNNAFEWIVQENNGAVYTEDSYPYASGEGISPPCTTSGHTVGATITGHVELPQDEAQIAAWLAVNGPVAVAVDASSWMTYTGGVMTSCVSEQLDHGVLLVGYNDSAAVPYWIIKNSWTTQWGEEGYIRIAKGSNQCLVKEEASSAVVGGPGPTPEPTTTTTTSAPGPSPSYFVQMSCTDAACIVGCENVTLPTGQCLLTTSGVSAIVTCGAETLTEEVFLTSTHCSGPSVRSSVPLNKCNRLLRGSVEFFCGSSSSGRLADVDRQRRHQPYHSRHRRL
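In this qHTS format, compounds are incubated with 1.5 nM cruzain for 15 min at room temperature before 2 uM Z-FR-AMC is added. Release of AMC is followed at 360/450 nm, and progress is taken as the 60 s fluorescence difference.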
Marburg entry inh = qHTS for inhibitors of binding or entry into cells for Marburg Virus; Marburg virus pseudotyped entry inhibition, cell reporter; control for the full effect not named in the record; about a third of the inactives were read at about 46 µM; Potency, µM (series often up to 37.8 µM), inactives show at the highest dose activity change, negative = inhibition, most hits filed as inhibitors; 300,000 compounds, 1.8% hits; active = well fitted inhibition curve with a large enough effect; inconclusive = small, poorly fitted or top-dose-only effect, or effect the other way; inactive = flat fitted curve, though single readings scatter; tested in HEK293 cells; about a fifth of its hits are not listed in these tables; further: on the % scale 0 is the no-effect control and ±100 the full control effect; luciferase read-out
SARS PLpro yeast = qHTS of Yeast-based Assay for SARS-CoV PLP. 330,000 compounds, 0.19% hits. S. cerevisiae expressing SARS-CoV PLpro, growth rescue; control for the full effect not named in the record. Potency, µM (series often up to 32.9 µM), inactives show at the top dose activity, positive = growth rescue. AID 485353, 2010; active means well fitted rising curve with a large enough effect; inconclusive means small, poorly fitted or top-dose-only effect; inactive means no such curve, though single readings can be large or run the other way; further: 0% is about no effect; nearly all actives have a fitted effect of over 55% in size; growth read by luminescence after 48 h
StopGo reporter = High Throughput Screening for Foot and Mouth Disease Virus Antivirals; human cells with a luciferase reporter of 2A StopGo recoding; control for the full effect not named in the record; Potency, µM (doses to about 57.9 µM), for the others: at the top dose signal change, negative = less light; 410,000 compounds, 1.2% hits; active = well fitted falling curve with a large enough effect; inconclusive = small, poorly fitted or top-dose-only effect; inactive = no such curve, though single readings can be large or run the other way; tested in HEK293T cells; further: on the % scale 0 is the no-effect control and ±100 the full control effect; nearly all actives have a fitted effect of over 45% in size; luciferase light after 4 h
RE007 growth inh = qHTS Assay for Inhibitors of the HIV-1 protein Vpr; S. pombe RE007 Vpr strain, BacTiter-Glo ATP luminescence, 24 h; control for the full effect not named in the record; 360,000 compounds, 0.21% hits; AID 651644, 2012; Potency, µM (doses to about 92.2 µM), for the others: at the highest dose activity change, negative = less growth; active = well fitted falling curve with a large enough effect; inconclusive = small, poorly fitted or top-dose-only effect; inactive = no such curve, though single readings can be large or run the other way;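 further: on the % scale 0 is the no-effect control and ±100 the full control effect; nearly all actives have a fitted effect of over 50% in size; the assay follows cell death caused by Vpr and the record does not say whether a fall means rescue or toxicity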
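Fission yeast strain RE007, carrying one chromosomally integrated HIV-1 vpr copy, was seeded at OD 0.01 in PMG+AL medium with 23 nL pinned compound. After 24 h at 30 °C and 99% humidity, viability was read by BacTiter-Glo luminescence.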
LASV entry inh = qHTS for Inhibitors of binding or entry into cells for Lassa Virus; Lassa virus pseudotype entry inhibition, cell reporter; control for the full effect not named in the record; Potency, µM (doses to about 37.9 µM), for inactives: top-dose activity change, negative = inhibition, actives largely listed as inhibitors; 300,000 compounds, 1.2% hits; AID 540256, 2011; active means well fitted inhibition curve with a large enough effect; inconclusive means small, poorly fitted or top-dose-only effect, or effect the other way; inactive means flat fitted curve, though single readings scatter; tested in HEK293 cells; further: on the % scale 0 is the no-effect control and ±100 the full control effect; nearly all actives have a fitted effect of over 50% in size; luciferase read-out
Cruzain inh noDet = qHTS Assay for Promiscuous and Specific Inhibitors of Cruzain (without detergent); purified cruzain, Z-FR-AMC fluorescence, no detergent; Potency, µM, for inactives: max response, negative = inhibition, hits mostly inhibitors; 200,000 compounds, 2.3% hits;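 further: plate controls were enzyme without inhibitor for no effect and buffer without enzyme for full effect; nearly all actives have a fitted effect of over 40% in size; top concentration of the series not given in the record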
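Purified cruzain at 1.5 nM, pre-incubated 15 min with compound at room temperature in 100 mM sodium acetate pH 5.5, 5 mM DTT, 0.00005% Triton X-100. Reaction started with 2 uM Z-FR-AMC; AMC fluorescence increase over 60 s gives rate.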
* marks the source's active call; other numbers are inactive results; ? = inconclusive; / = not tested or not shown; & = joins results of further samples; [ ] = remark or other dose. Unless noted, the call rests on the fitted dose curve; in most records, active means well fitted curve in the direction sought with a large enough effect; inconclusive means small, poorly fitted or top-dose-only effect, or another doubt; inactive means no such curve, though single readings can be large; an effect the other way counts as inactive or inconclusive. Potency means the concentration at half of the fitted maximal effect.

SMILES	NS1 inh	Cruzain Triton	Marburg entry inh	SARS PLpro yeast	StopGo reporter	RE007 growth inh	LASV entry inh	Cruzain inh noDet
Cc1nc2nc(-c3cccnc3)[nH]n2c(=O)c1C	-5%	-2.5%	3%	7%	40%[activator]	-11%	11%	-2%
CC(C)CCn1c(SCc2cccc(F)c2)nc2ccsc2c1=O	/	-5.3%	/	/	-5%	/	?	0%
Cc1cc(C)c(-c2noc(C(=O)OC(C)(C)C)c2C(=O)OC(C)(C)C)c(C)c1	-7%	-5.5%	-16%	7%	?	5%	-9%	0%
Cc1cc(OCC(F)(F)C(F)(F)C(F)(F)C(F)(F)C(F)(F)C(F)F)nc(N)n1	0%	-12%	?	-1%	?	4%	1%	?
C#CCCOC(=O)N1C2=NC(C(=O)OC)=C(C(=O)OC)[C@@H]3N(C)c4ccccc4[C@]23C[C@H]1C(=O)OC	2%	/	?	1%	-25%	-15%	?	/
Cc1ccc(C(=O)CSc2nnc3c4ccccc4nc(Cc4ccccc4)n23)cc1	-1%	-2.2%	9%	2%	-14%	2%	5%	?
O=C(COC(=O)c1cccc(Br)c1)Nc1cccc2c1C(=O)c1ccccc1C2=O	1%	/	?	0%	33%[activator]	4%	-28%	/
Cc1cccc(OCC(=O)OC2CCN(C)CC2)c1	6%	2.0%	0%	-1%	-8%	19%	1%	-4%

Two records drawn at random from those above, as already listed:
SMILES	NS1 inh	Cruzain Triton	Marburg entry inh	SARS PLpro yeast	StopGo reporter	RE007 growth inh	LASV entry inh	Cruzain inh noDet
CC(C)CCn1c(SCc2cccc(F)c2)nc2ccsc2c1=O	/	-5.3%	/	/	-5%	/	?	0%
Cc1cc(C)c(-c2noc(C(=O)OC(C)(C)C)c2C(=O)OC(C)(C)C)c(C)c1	-7%	-5.5%	-16%	7%	?	5%	-9%	0%

New compounds follow
SMILES	NS1 inh	Cruzain Triton	Marburg entry inh	SARS PLpro yeast	StopGo reporter	RE007 growth inh	LASV entry inh	Cruzain inh noDet
CCOc1ccc(C(=O)NN2CCOCC2)cc1	-9%	/	/	2%	-4%	29%	/	/
c1ccc(Nc2ccccn2)nc1	-3%	/	/	4%	-16%	3%	/	/
CC(NC=O)c1nc2ccccc2n1CCc1ccccc1 (stereo not drawn)	2%	/	/	0%	4%	2%	/	/
C#CCO[C@@H]1C[C@H](n2ccc(NC(=O)c3ccccc3)nc2=O)O[C@@H]1CO	1%	/	/	2%	0%	-12%	/	/
CCCCc1ccc(-c2ccc(Br)cc2)nc1	2%	-5.0%	-15%	8%	/	15%	?	-8%
COC(=O)c1ccc(NC(=O)CSc2ccccc2)cc1	-4%	-4.8%	?	-1%	40%[activator]	-7%	4%	-15%
COC(=O)c1ccc(NC(=O)CCN2CCCCC2)cc1	-10%&5%	7.4%&-1.5%	-2%&2%	11%&-2%	-8%&-21%	-6%&-3%	22%&-2%	-1%&-3%
CN(C)C(/C=C/Nc1ccc([N+](=O)[O-])cc1)=C(C#N)C#N	/	/	-19%[46.1 µM]	2%	3%	3%	5%	/
COc1cccc(NC(=O)CN(C)C(C)C(=O)Nc2ccc(S(=O)(=O)N3CCOCC3)cc2)c1 (stereo not drawn)	-45%	/	/	-1%	-10%	13%	/	/
C=CCOc1cccc(C2/C(=C(/O)c3ccc(F)cc3)C(=O)C(=O)N2CCN2CCOCC2)c1 (stereo not drawn)	4%	-3.1%	6%	5%	22%	1%	1%	10%
Cc1ccc2nc(-c3ccccc3O)c(Nc3ccccc3C)n2c1	/	-2.0%	1%[46.1 µM]	/	-8%	/	-3%[46.1 µM]	-5%
O=C(NCCCN1CCCC1)c1cc2c(Cl)nc3ccccc3c2s1	/	/	10µM*	4%	-2%	-9%	?	/
CC(Oc1cc2oc(=O)c3c(c2cc1Cl)CCCC3)C(=O)NCc1cccnc1 (stereo not drawn)	5%	/	-1%[46.1 µM]	0%	-12%	9%	-2%[46.1 µM]	/
COC(=O)C(C)n1cnc2c(nnn2Cc2ccc(Cl)cc2)c1=O (stereo not drawn)	-17%	4.0%	?	29%	-7%	16%	2%	0%
CCC(C)N1C(=O)S/C(=C/c2ccc3c(c2)n(C)c(=O)n3C)C1=O (stereo not drawn)	/	/	-29%[46.1 µM]	-2%	-21%	3%	?	/
Cc1ccccc1CN1CCC(CNC(=O)c2c(C)oc3ncnc(N4CCCCC4)c23)CC1	/	1.4%	/	/	?	/	13%[46.1 µM]	-4%
COc1ccc(CNC(=O)N2CCN(c3ccccc3OC)CC2)cc1	-10%	/	5%	1%	0%	-2%	0%	/
CCc1ccc(C(=O)CSc2nc3ccccc3c(=O)[nH]2)cc1	-5%	-2.6%	-23%	-7%	21%	-2%	6%	?
CCOP(=O)(OCC)C(NC(=O)Cc1ccccc1)C(Cl)(Cl)Cl (stereo not drawn)	/	/	?	0%	5%	-5%	?	/
NNc1nc(-c2ccccc2Cl)c2cc(Br)ccc2n1	?	/	/	9%	-9%	12%	/	/
Cc1ccc(S(=O)(=O)N2CCN(c3cnn(-c4ccccc4)c(=O)c3Cl)CC2)cc1	1%	-2.9%	8%	10%	-1%	-14%	-4%	-2%
O=C(c1cnc(N2CCCCC2)c2ccccc12)N1CCN(c2ccc(F)cc2)CC1	/	-13%	/	/	-25%	/	-20%[46.1 µM]	16%
Nc1cc[n+](CC(=O)c2ccccc2)cc1	10%	/	/	0%	-11%	-14%	/	/
CC(C)(C)C(=O)[C@@H]1[C@@H]2C(=O)N(c3ccc4c(c3)OCCO4)C(=O)[C@@H]2C2c3ccccc3C=CN21 (stereo partly drawn)	-43%	4.2%	-3%	-4%	-17%	-2%	-13%	-8%

Next part; it opens with the three that closed the last part.
SMILES	NS1 inh	Cruzain Triton	Marburg entry inh	SARS PLpro yeast	StopGo reporter	RE007 growth inh	LASV entry inh	Cruzain inh noDet
O=C(c1cnc(N2CCCCC2)c2ccccc12)N1CCN(c2ccc(F)cc2)CC1	/	-13%	/	/	-25%	/	-20%[46.1 µM]	16%
Nc1cc[n+](CC(=O)c2ccccc2)cc1	10%	/	/	0%	-11%	-14%	/	/
CC(C)(C)C(=O)[C@@H]1[C@@H]2C(=O)N(c3ccc4c(c3)OCCO4)C(=O)[C@@H]2C2c3ccccc3C=CN21 (stereo partly drawn)	-43%	4.2%	-3%	-4%	-17%	-2%	-13%	-8%
Cc1ccc(-c2nn(CC(=O)N3CCOCC3)c(=O)c3ccccc23)cc1S(=O)(=O)N(C)C	-5%	/	/	1%	-21%	-4%	/	/
Cc1ccc(NC(=O)c2ccc3snnc3c2)cc1	3%	/	?	-2%	33%[activator]	-1%	?	/
Nc1nonc1-n1nnc(C(=O)N/N=C/c2cccc(Cl)c2)c1-c1ccc2c(c1)OCO2	17%	/	1%[46.1 µM]	0%	-15%	-2%	7%[46.1 µM]	/
COc1c(C)cc(NC(=O)c2ccc3c(c2)NC(=O)CO3)cc1C	/	/	23%[46.1 µM]	3%	-15%	-5%	20%	/
COc1ccc(N(C)S(=O)(=O)c2cccc(C(=O)Nc3ccc(OC)nc3)c2)cc1	-38%	-2.1%	-22%	2%	/	/	-27%	8%
CSCCC(C(=O)OCC(=O)c1ccc(C)c(C)c1)N1C(=O)c2ccccc2C1=O (stereo not drawn)	-11%	-6.7%	?	-31%	-16%	3%	1%	11%
Cn1c(C(=O)NCc2ccccc2F)cc2oc3ccccc3c21	/	-12%	?	/	25%	/	/	-9%
COc1ccc(NC(=S)N/N=C2/CCCc3c(C)cc(C)cc32)cc1	4%	-6.0%	1%	7%	2%	3%	?	?
COc1cc(C(=O)NC(=S)Nc2ccccc2N2CCOCC2)cc(OC)c1OC	-5%	/	/	-8%	10%	2%	/	/
CC1(C)Cc2cccc(OCC(=O)NCc3ccc(F)cc3)c2O1	/	/	?	-4%	-24%	-8%	-1%	/
C/C(=N/NC(=O)CN1CCN(S(=O)(=O)c2ccc(Br)cc2)CC1)c1cccnc1	9%	-0.6%	?	14%	-16%	-12%	-2%	0%
COc1ccc(N2CCN(C(=O)CSc3nnc4n3C(C)(C)Cc3ccccc3-4)CC2)cc1	-13%	9.6%	-19%&-19%	-3%	20µM*	-11%	-24%	?
Cc1ccc(S(=O)(=O)C2(C(=O)Nc3cccc(F)c3)CC2)cc1	1%	-1.4%	/	1%	-5%	5%	/	8%
COc1cc(C2C(C#N)=C(N)N(Nc3ccccc3)C3=C2C(=O)CC(C)(C)C3)ccc1OCc1cccc(F)c1 (stereo not drawn)	?	9.4%	1.8µM*	8%	-27%	6%	?	-26%
CC(=O)Nc1ccc2nc(SCCOc3ccccc3Cl)sc2c1	/	-11%	?	/	10%	/	-12%[46.1 µM]	?
Cc1sc(NC(=O)C(C)C)c(C(=O)Nc2ccccc2)c1C	-19%	1.4%	?	-8%	/	7%	7%	-4%
CCOc1ccc(NC(=O)CNC(=O)c2cccs2)cc1	-4%	/	/	-1%	45%[activator]	11%	/	/
O=C(CSc1nc2c(cnn2-c2ccc(F)cc2)c(=O)[nH]1)Nc1ccccc1C(F)(F)F	/	4.4%	?	/	-11%	/	4%[46.1 µM]	5%
O=C(N/N=C(\Cc1ncc[nH]1)c1ccccc1)c1cccnc1	/	/	?	1%	-4%	-18%	?	/
CCCCCCNS(=O)(=O)c1ccc(OC)c(OC)c1	1%	-0.9%	?	-10%	59%	16%	1%	2%
CC(=O)CSc1nc(-c2ccccc2)[nH]c1S(=O)(=O)c1ccc(C)cc1	/	-4.9%	0%[46.1 µM]	/	33%[activator]	/	?	-10%
CCOc1ccc(C(=O)N2CCC(C(=O)c3ccc4c(c3)OCCO4)CC2)cc1	?	-2.3%	-16%	15%	-24%	1%	-20%	-14%

Screening data as filed in PubChem BioAssay.
